Screens from PubChem.
StopGo reporter = FMDV 2A StopGo reporter, luciferase signal. 410,000 tested, 1.2% active. human cells with a luciferase reporter of 2A StopGo recoding; control for the full effect not named in the record. Potency, µM (titrated, usually from 57.9 µM), for the others: at the top dose signal change, negative = less light; active = well fitted falling curve with a large enough effect; inconclusive = small, poorly fitted or top-dose-only effect; inactive = no such curve, though single readings can be large or run the other way; tested in HEK293T cells; note: nearly all actives have a fitted effect of over 45% in size; luciferase light after 4 h
RE007 growth inh = less growth of the S. pombe RE007 Vpr strain. S. pombe RE007 Vpr strain, BacTiter-Glo ATP luminescence, 24 h; control for the full effect not named in the record. Potency, µM (highest dose often 92.2 µM), for inactives: at the highest dose activity change, negative = less growth. 360,000 tested, 0.21% active; active = well fitted falling curve with a large enough effect; inconclusive = small, poorly fitted or top-dose-only effect; inactive = no such curve, though single readings can be large or run the other way;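 note: nearly all actives have a fitted effect of over 50% in size; the assay follows cell death caused by Vpr and the record does not say whether a fall means rescue or toxicity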
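Fission yeast RE007 carrying one integrated HIV-1 vpr copy, seeded at OD 0.01 in PMG+AL medium with 23 nL pinned compound. Grown 24 h at 30 degrees; viability read by BacTiter-Glo luminescence after 5 min.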
* = called active by the depositor; u = inconclusive; [ ] = dose if it differs, or a comment. % is set by controls: 0 for no effect and ±100 for the full control effect; potency is the fitted concentration of half-maximal effect. Some of the compounds tested. The share of hits here may be higher or lower than overall.

Start of the listing, in advance:
| canonical_smiles | StopGo reporter | RE007 growth inh |
| --- | --- | --- |
| N#Cc1ccc(-c2nc3c4ccccc4ccn3c2Cc2cccc(Cl)c2)cc1 | -15% | -15% |
| COc1cccc(OC2(C)CCN(Cc3cccn3-c3nccs3)C2)c1 (stereo not given) | -32% | u |
| CN(Cc1ccccc1)C(=O)COc1ccc2ccccc2c1 | 60%[activator] | -5% |
| CCN(C)C1CN(Cc2cn(Cc3cccc(C(F)(F)F)c3)nn2)S(=O)(=O)C1 (stereo not given) | -9% | -2% |

The whole of this part, repeating the preview:
| canonical_smiles | StopGo reporter | RE007 growth inh |
| --- | --- | --- |
| N#Cc1ccc(-c2nc3c4ccccc4ccn3c2Cc2cccc(Cl)c2)cc1 | -15% | -15% |
| COc1cccc(OC2(C)CCN(Cc3cccn3-c3nccs3)C2)c1 (stereo not given) | -32% | u |
| CN(Cc1ccccc1)C(=O)COc1ccc2ccccc2c1 | 60%[activator] | -5% |
| CCN(C)C1CN(Cc2cn(Cc3cccc(C(F)(F)F)c3)nn2)S(=O)(=O)C1 (stereo not given) | -9% | -2% |
| CN1CCN(CCNC(=O)c2ccc(CS(=O)c3ccc(Br)cc3)o2)CC1 (stereo not given) | -9% | -9% |
| CCOC(=O)[C@]12CCCC=C1N(Cc1cccc3ccccc13)C(=O)[C@H](CC(=O)NCCCCc1ccccc1)C2 | -23% | 1% |
| CCCCNC(=O)C1(C)CCN1C(=O)c1csnn1 (stereo not given) | -19% | 1%[18.4 µM] |
| COc1cc(/C=C/CN2CCC(C(=O)NC(c3ccc(F)cc3)c3ccc4ccccc4n3)CC2)ccc1OC(C)=O (stereo not given) | -19% | 10% |
| Cc1onc(-c2c(F)cccc2Cl)c1C(=O)Oc1ccccc1 | -21% | -9%[18.4 µM] |
| O=C(c1ccc(CS(=O)Cc2ccc(Cl)cc2)o1)N1CCN(C2CCCCC2)CC1 (stereo not given) | -10% | -26% |
| CCCNc1nc(C)cc(-c2cc(C(=O)Nc3ccccc3)on2)n1 | 15% | 5% |
| CCCNC(=O)C1(C)CCN(C(=O)c2cccc(Cl)c2)C1 (stereo not given) | -14% | -4% |
| CCOC(=O)c1c(C)[nH]c(C(=O)OC(C)C(=O)Nc2ccc(C)cc2)c1C (stereo not given) | -20% | 8% |
| CC1(C(=O)NCc2ccccc2)CN(S(C)(=O)=O)CC(=O)N1Cc1ccc2c(c1)OCO2 (stereo not given) | -23% | 10% |
| Cc1ccc(-c2csc(NCCc3nc4cc(Cl)c(Cl)cc4n3CCCO)n2)cc1 | -8% | 0% |
| Cc1ccc(C)c(NC(=O)CN2C(=O)C3CC=CCC3C2=O)c1 (stereo not given) | -4% | -7% |
| C=C1[C@@H](O)[C@H](Cc2ccccc2)N(Cc2ccccc2Br)S1(=O)=O | 18µM* | -10% |
| CC(C)C[C@H]1CN(CCCC[C@H]2CNC(=O)C(=O)N2CC2CCCCC2)C(=O)C(=O)N1Cc1ccccc1 | 13% | -3% |
| O=C(c1cccc(S(=O)(=O)N2CCCC2)c1)N1CCN(S(=O)(=O)c2cccc(Cl)c2)CC1 | u | 2% |
| CCOC(=O)C1(CCOC)CCN(C/C=C/c2ccccc2OC)CC1 | u | -5% |
| CC1(c2nnc(-c3cccc(Cl)c3)o2)CC(c2ccc(Cl)cc2)=NO1 (stereo not given) | -9% | 6% |
| Cc1cc(C)c2c(=O)n3c(nc2c1)C(Cc1ccc(O)cc1)NC(=O)c1cc2ccccc2cc1-3 (stereo not given) | u | 1% |
| Cc1ccc(S(=O)(=O)N2[C@H](c3ccccc3)CC(=O)[C@@H]3CN(S(=O)(=O)c4ccccc4)[C@H](c4ccccc4)C[C@@H]32)cc1 | -2% | 5% |
| C[C@H](O)C#Cc1ccc2c(c1)O[C@@H](CN(C)Cc1ccc(-c3ccccc3)cc1)[C@H](C)CN([C@@H](C)CO)S2(=O)=O | u | -4% |
| OC[C@@H]1CN(Cc2ccccc2)C[C@H](n2cnc3c(N4CCOCC4)ncnc32)O1 | -2% | 7% |
| Cc1nc(-c2ccc(Cl)cc2)sc1C1(C)CC(c2ccc(Br)cc2)=NO1 (stereo not given) | 33%[activator] | 3% |
| CC1CCN(C(=O)COC(=O)c2ccccc2NCCO)CC1 | 0% | -14% |
| Cc1cc(NS(=O)(=O)c2ccc(NC(=O)c3ccc([N+](=O)[O-])cc3)cc2)nc(C)n1 | 18% | -15% |
| CCOC(=O)C1CCCN(C(=O)c2ccc3sccc3c2)CC1 (stereo not given) | 12% | 15%[18.4 µM] |
| CCCCOC(=O)c1ccc(NC(=O)c2c(N)n(C)c(=O)[nH]c2=O)cc1 | -17% | 10% |
| CC(=O)c1ccc(N2CCN(C(=O)C(=O)c3cn(CC(=O)N4CCOCC4)c4ccccc34)CC2)cc1 | -3% | -7% |
| C[C@@H]1CN([C@@H](C)CO)S(=O)(=O)c2ccc(Br)cc2O[C@H]1CN(C)C(=O)CN(C)C | -2% | 1% |
| COc1ccccc1Cc1c(C2CCCCC2)nc2c3ccccc3ccn12 | -6% | u |
| CN1C[C@@H]2[C@@H]3C(=O)N(Cc4ccccc4)C(=O)[C@@H]3[C@](C)(C1=O)N2C(=O)c1ccccc1 | 13% | 2% |
| COc1ccc(NC(=O)N(C)C[C@@H]2OCc3cn(nn3)CCCC(=O)N([C@@H](C)CO)C[C@H]2C)cc1 | -2% | 9% |
| Cc1ccc2c(c1)N(Cc1ccccc1)C(=O)C(C)O2 (stereo not given) | -14% | -15% |
| Cc1ccc(N2CCN(C(=O)C(=O)c3cccc([N+](=O)[O-])c3)CC2)cc1 | -3% | -16% |
| COCCNc1nc2cc(-c3cccc(Cl)c3)sc2c(=O)n1C | -1% | 6% |
| O=C(Nc1ccccc1Cl)c1cc(C2CCCN(C(=O)c3cccs3)C2)on1 (stereo not given) | 0% | 1% |
| CSc1nc(N)n2nccc2n1 | 1% | 3% |
| CCOc1cc(OCC)cc(C(=O)N2CCC[C@H]2C(=O)N2CCC[C@H]2C(=O)N[C@@H](C)c2ccccc2)c1 | -19% | 2% |
| CN(CCN1CCOCC1)C(=O)c1cc(COc2ccc(F)cc2Cl)on1 | 5% | 1% |
| CC(C)C[C@H]1CN(CCCC[C@H]2CNC(=O)C(=O)N2CCc2ccc(O)cc2)C(=O)C(=O)N1CCC1CCCCC1 | -15% | 0% |
| CCOC(=O)C1CCCN(C(=O)c2cc(F)ccc2C)CC1 (stereo not given) | -18% | 6% |
| COCCNC(=O)C1(C)CCN(C(=O)c2ccc3sccc3c2)C1 (stereo not given) | -3% | 0% |
| O=C(CC1C[C@H](C(=O)N2CCOCC2)[C@@]2(CCC3CCCC3)c3[nH]c4ccccc4c3CCN2C1=O)NCc1cccc(C(F)(F)F)c1 (stereo not given in full) | -34% | -15% |
| O=C(OCc1cc(=O)n2ccsc2n1)C1(c2ccccc2)CC1 | -11% | 16% |
| CCOC(=O)[C@]12CCCC=C1N(Cc1cccc3ccccc13)C(=O)[C@H](CC(=O)NCc1cccc3ccccc13)C2 | -12% | 17% |
| COc1ccc(NS(=O)(=O)c2cccc(C(=O)N/N=C/c3c(F)c(F)c(F)c(F)c3F)c2)cc1 | 0% | -13% |
| Cc1cc(S(=O)(=O)c2ccc(Cl)cc2)nc(S(=O)(=O)c2ccc(Cl)cc2)c1C#N | 28µM* | 20% |
| CCCOc1ccc(F)cc1-c1cc(C(=O)Nc2ccccc2)[nH]n1 | -7% | -8% |
| CCCN(C)C[C@@H]1Oc2ncc(Br)cc2C(=O)N([C@@H](C)CO)C[C@H]1C | -12% | 6% |
| COc1cc(NCCCn2cnc3c(OCc4ccccc4)ncnc32)cc(OC)c1OC | -25% | 2% |
| CCOC(=O)N1CCN(C(=O)C[C@@H]2C[C@@]3(C(=O)OC)CCCCC=C3N(Cc3ccc(Cl)cc3Cl)C2=O)CC1 | u | 57% |
| Cc1ccc(C(=O)N[C@H](C(=O)N2CCN(c3ncccn3)CC2)C(C)C)cc1 | -25% | -1% |
| CCNC(=O)C1(C)CCN(Cc2ccc(C#N)cc2)C1 (stereo not given) | -11% | -1% |
| COc1cc(C(=O)NC2CC(C)CC(C)(C)C2)cc(OC)c1OC (stereo not given) | 0% | 17% |
| COc1ccc(NC(=O)c2cc(C3CCCCN3C(=O)CCCc3ccccc3)on2)c(C)c1 (stereo not given) | 0% | -1% |
| CCC(C)CN1C(=O)CN(S(C)(=O)=O)CC1(C)C(=O)Nc1ccc2c(c1)OCCO2 (stereo not given) | 3% | -1% |
| Cc1ccc2c(C)c(C(=O)NCC3CCOCC3)oc2c1C | -24% | 3% |

The results go on.
| canonical_smiles | StopGo reporter | RE007 growth inh |
| --- | --- | --- |
| COC(=O)[C@]12CCCCC=C1N(Cc1ccc3c(c1)OCO3)C(=O)[C@H](CC(=O)NCCC(C)C)C2 | 16% | 0% |
| CCN(CC)C(=O)Cn1cc(S(=O)(=O)CC(=O)Nc2cccc(NC(C)=O)c2)c2ccccc21 | -24% | 12% |
| NC(Cc1ccc(C(F)(F)F)cc1)c1csc(Nc2nncc3ccccc23)n1 (stereo not given) | -24% | -2% |
| O=C1N[C@@H](c2ccccc2)COC(=O)[C@H](Cc2ccc(F)cc2)C/C=C\C[C@H]1CC(=O)N(CCO)Cc1ccccc1 | -17% | 3% |
| C=CCn1c(SCC(=O)Nc2ccc(Br)cc2)nc(O)cc1=O | -14% | -2% |
| COCCN(C(=O)COC(=O)CCC1CCCCC1)c1c(N)n(Cc2ccccc2)c(=O)[nH]c1=O | -20% | -3% |
| COc1ccc(CNC(=O)C2(CC3CC(c4ccccc4)=NO3)CCN(C(=O)OC(C)(C)C)CC2)cc1 (stereo not given) | -11% | 5% |
| NC(c1ccncc1)c1ccc(Cl)cc1 (stereo not given) | -11% | 7% |
| CC(C)CN(C(=O)COC(=O)CCSc1ccc(Cl)cc1)c1c(N)n(Cc2ccccc2)c(=O)[nH]c1=O | u | -2% |
| COc1cc2oc(=O)cc(CN3CCCCCCC3)c2cc1Cl | -3% | -27% |
| Cc1ccccc1NC(=O)c1cc(S(=O)(=O)N2CCCCC2)ccc1N1CCOCC1 | -12% | 5% |
| COC(C/C=C/C(=O)[C@@H](C)OCc1ccccc1)OC | 40µM* | 3% |

Three compounds picked at random from the list so far, as already listed:
| canonical_smiles | StopGo reporter | RE007 growth inh |
| --- | --- | --- |
| CC(C)CN(C(=O)COC(=O)CCSc1ccc(Cl)cc1)c1c(N)n(Cc2ccccc2)c(=O)[nH]c1=O | u | -2% |
| Cc1ccccc1NC(=O)c1cc(S(=O)(=O)N2CCCCC2)ccc1N1CCOCC1 | -12% | 5% |
| NC(Cc1ccc(C(F)(F)F)cc1)c1csc(Nc2nncc3ccccc23)n1 (stereo not given) | -24% | -2% |

Carrying on.
| canonical_smiles | StopGo reporter | RE007 growth inh |
| --- | --- | --- |
| [N-]=[N+]=NC(c1ccccc1)C(NC(=O)c1cc(C(F)(F)F)cc(C(F)(F)F)c1)c1ccccc1 (stereo not given) | 25µM* | 6% |
| Cc1ccc2nc(CC(O)(c3ccccc3)c3ccccc3)ccc2c1 | u | 6% |
| CN(C)c1ccc(-c2ccnc3c2CC(C)(C(=O)Nc2ccc(F)c(Cl)c2)O3)cc1 (stereo not given) | -24% | 1% |
| CC1(c2nnc(-c3cccc(Cl)c3)o2)CC(c2ccccc2F)=NO1 (stereo not given) | 39%[activator] | -28% |
| COc1cc(NC(=O)c2cc(-c3cc(F)ccc3OC(C)C)n[nH]2)cc(OC)c1OC | -24% | 3% |
| COC(=O)C1=C(C(=O)OC)C2C=CC1C1C(OC(C)=O)C(OC(C)=O)C21 (stereo not given) | -24% | 2% |
| C=C(C)[C@@]12OC3(c4ccccc4)O[C@@H]1C1[C@@H]4O[C@]4(CO)[C@@H](O)[C@]4(O)C(=O)C(C)=C[C@H]4[C@@]1(O3)[C@H](C)[C@H]2OC(=O)/C=C/C=C/c1ccccc1 (stereo not given in full) | 2% | -12% |
| O=C(Nc1ccccc1F)c1csc(COCCO)n1 | 33%[activator] | 4% |
| CC(C)CN(C(=O)CN(C)C(=O)Cc1c(F)cccc1Cl)c1c(N)n(CC(C)C)c(=O)[nH]c1=O | -8% | 15% |
| CC(=O)c1ccc(Nc2nc(C(N)Cc3ccc(C(F)(F)F)cc3)cs2)cc1 (stereo not given) | -23% | -23%[18.4 µM] |
| CC(CN1CC(=O)NC(=O)C1)N1CC(=O)NC(=O)C1 (stereo not given) | -21% | 24% |
| O=C(Cc1cccc(NC(=O)C2CCN(C(=O)C3CCCCC3)CC2)c1)Nc1cccc(C(=O)N2CCOCC2)c1 | 0% | 0% |
| Cc1ccc(CN2CCC(C(=O)c3ccc(F)cc3)CC2)cc1 | -14% | -20% |
| COc1ccc(Cn2cc(CN3CC(N4CCN(C)CC4)CS3(=O)=O)nn2)cc1 (stereo not given) | -13% | 28% |
| CC1(C(=O)NCc2cccs2)Cc2c(-c3ccccc3)ccnc2O1 (stereo not given) | -16% | -13% |
| COc1ccc(-c2nc3ccc(Br)cn3c2CC(C)(C)C)cc1OC | -25% | -18% |
| COC(=O)CCC(=O)OC1(C)C(=O)C2=CN(C3CC3)C(c3ccc(OC)cc3)=CC2=C(Br)C1=O (stereo not given) | 35%[activator] | 13% |
| COC(=O)[C@H](NCc1ccc(OC)c(B(O)O)c1)C(C)C | -3% | -7% |
